# Assay outcomes from PubChem BioAssay.
# Mtb hypoxia rep – PubChem AID 1159583. 0.1% of 300,000 active. M. tuberculosis hypoxia-regulated fluorescent reporter, fluorescence. fluorescence inhibition, % (no concentration beside the values);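 active = 35 to 45% if threefold the growth effect, above 45% if 1.5-fold the growth effect; inactive = the rest, general growth blockers included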;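 also: wells of about 50 µL received 100 nL stock; 0% = vehicle wells and 100% = reference inhibitor wells; whole bacteria with a GFP reporter of the hypoxia response; strong numbers were not always called active; many hits fall short of the cut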
# Autofluor counter – flagged as autofluorescent in microsphere protease counterscreen | compound autofluorescence counterscreen, microsphere flow cytometry; hits give high values | fluorescence intensity (no concentration beside the values) | 3.1% of 360,000 active;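 active = at least 3 SD above the mean of all compounds, about 16000 in these data; inconclusive = too few beads counted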;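 also: 100 nL of 1 mM stock went into each well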
# PrP UTR inh – inhibition of PrP 5' UTR reporter expression; AID 488862, 2010; 0.35% of 340,000 active; cell-based PrP 5' UTR mRNA reporter, plate reader; inhibition, % (test concentration not listed);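 active = every replicate at 50% or more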;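 also: 0 = median of the neutral control wells; tested in H4 reporter cells; numbers are from one replicate; inactives centre near -14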
# Sa RN4220 lethal – growth inhibition of S. aureus RN4220, primary screen, OD600; 0.33% of 330,000 active; 16 h; AID 1259311, 2017; inhibition, % (no concentration beside the values);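 active = z-score of -3 or lower and OD600 up to 0.18 on both plates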;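 also: plate controls were untreated cells for no effect and reference antibiotic for full effect; stock transfer was 100 nL into about 80 µL; one replicate is shown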
# ugtP null kill – growth inhibition of ugtP-null S. aureus, primary screen, RN4220 ugtP deletion, OD600 | 16 h; some inactives read as strong as hits | growth inhibition, % (no concentration beside the values) | 0.54% of 330,000 active;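 active = z-score under -3 and OD600 up to 0.15 on both plates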;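 also: plate controls were untreated wells for no effect and antibiotic for full effect; wells of about 80 µL received 100 nL stock; the first replicate is given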
# BJeLR viability – MLPCN primary cell-based screen for lethality selective to Ras in HRASV12 cells; BJeLR (HRASV12) viability, CellTiter-Glo ATP luminescence, 48 h; reference of the scale not given here; inhibition, % (concentration not given with the values); AID 1554, 2009; 0.17% of 300,000 active;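 active = replicate mean above 50%; inconclusive = above 50% but judged a plate artefact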;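 also: 50 nL library stock added to about 25 µL; numbers are from one replicate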
# Mtb hypoxia rep growth – further read-out of Mtb hypoxia rep, marked with its call; growth inhibition, %; measured here: M. tuberculosis growth (absorbance);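 0% = vehicle and 100% = reference antibiotic; read after six days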
# * hit, by the source's call; ? = inconclusive; / = not tested or not shown. Not a hit list. Share with any hit: about 4%.
structure	Mtb hypoxia rep	Mtb hypoxia rep growth	Autofluor counter	PrP UTR inh	Sa RN4220 lethal	ugtP null kill	BJeLR viability
Cn1nc(C(F)(F)F)c(-c2cccc(C(F)(F)F)c2)c1NC(=O)c1cccnc1	5	-9	/	-17	3.8	-7	-1
CC(Oc1ccccc1)C(=O)N1CCN(C(=O)C(C)Oc2ccccc2)CC1 (stereo not drawn)	2	0	5772	-25	2.9	4	2
CCOS(C)(=O)=O	9	1	5096	-5	4.4	14	/
Cc1ccccc1NC(=O)c1cc(S(=O)(=O)N2CCCCC2)cs1	12	3	4377	-8	0.0	17	-3
O=[N+]([O-])c1ccc(N2CCNCC2)cc1N1CCCCC1	16	6	3136	-18	4.2	10	-4
COc1cc(-c2nnc(COC(=O)C3c4ccccc4Oc4ccccc43)o2)cc(OC)c1OC	15	20	4013	4	4.8	-4	-7
CCN(CC)Cc1c(C(=O)N/N=C/c2cccc(OCc3cccc(Cl)c3)c2)nnn1-c1nonc1N	/	/	4298	-17	/	/	-1
CC(C)CN(C(=O)Cn1c(C(F)(F)F)nc2ccccc21)c1c(N)n(Cc2ccccc2)c(=O)[nH]c1=O	9	5	4079	-16	3.1	3	/
COc1ccc(N/N=C(\C#N)C(N)=O)cc1	/	/	2202	-21	/	/	7
O=C(CNC(=O)c1cccs1)NN=Cc1ccc(O)cc1O	0	1	/	/	0.8	4	/
CCN(Cc1ccccc1)C(c1cc2cc(C)cc(C)c2[nH]c1=O)c1nnnn1CCOC (stereo not drawn)	/	/	3515	-19	8.4	-15	-4
COc1ccccc1OCC(=O)NNC(=O)C1CCN(c2ncnc3sc(C)c(C)c23)CC1	3	-7	3551	-2	-1.1	3	/
CCN1C(=O)C(CC(=O)N2CCN(C(c3ccccc3)c3ccccc3)CC2)N(CC)C1=O (stereo not drawn)	8	1	16806*	2	-0.9	6	-7
CC(C)(C)NC(=O)COc1ccc(CNCc2ccccn2)cc1	/	/	3141	-4	/	/	3
O=C(CN1CCN(S(=O)(=O)c2ccccc2F)CC1)N1CCc2ccccc2C1	10	6	2845	-24	2.7	0	/
CC(C)c1nnc(NC(=O)CN2C(=O)c3ccccc3C2=O)s1	12	6	6829	-6	0.9	5	11
COc1cc(CC(=O)OCC(=O)N2CCN(C(=O)c3ccco3)CC2)cc(OC)c1OC	8	13	3916	-24	3.9	4	/
COc1ccc(C2=NOC(C)(c3nnc(-c4ccccc4)o3)C2)cc1 (stereo not drawn)	17	11	3651	-3	3.3	0	7
Cc1ccccc1NC(=O)Cn1c(=O)n(CC2CCCO2)c(=O)c2ccccc21 (stereo not drawn)	11	16	4976	-25	1.4	4	0
CC(=O)Nc1ccc(Sc2ccccc2C(=O)N2CCCC2)cn1	2	-2	4931	-14	1.6	3	-3
Cc1ccc(CN(CC(=O)NC(C)(C)C)C(=O)CNC(=O)c2cccs2)cc1	4	6	3634	-8	4.0	8	1
O=C(Nn1cnnc1)c1csc2ccccc12	13	-10	9789	-27	5.6	-4	-5
O=C(CNC(=O)Cn1cnc2sc3c(c2c1=O)CCCC3)NCc1ccccn1	10	10	7341	-24	7.4	15	2
O=C(NCCCN1CCCC1=O)C(=O)NCC1OCCN1S(=O)(=O)c1ccc(Cl)cc1 (stereo not drawn)	11	0	?	-16	2.1	14	-12
C=CCn1c(CSCc2ccc(Cl)cc2Cl)nnc1SCC(=O)Nc1ccc(C(=O)O)cc1	-7	-6	4752	-18	-6.2	4	-3
COc1ccc(OC)c(CC(NC(C)=O)C(=O)NC2CCN(c3nnnn3-c3ccccc3)CC2)c1 (stereo not drawn)	10	7	/	/	1.9	8	20
O=C(O)c1cccc(S(=O)(=O)Nc2ccc(O)c(Sc3nc4ccccc4s3)c2)c1	8	2	3787	-4	4.0	0	3
Cc1ccccc1OCCn1cc(C(=O)O)c2ccccc21	-2	-10	3190	-3	1.3	-15	-3
COc1ccc(CCNC2=CC(=O)N(c3ccc(F)cc3)C2=O)cc1	2	7	3340	-17	5.2	2	13
O=C(O)COc1cccc(NC(=O)c2ccccc2)c1	-3	0	9586	-7	3.8	6	-6
Cc1ccc(NC(=O)CCN2C(=O)CSC2=O)cc1	19	-17	3174	-22	-18	-8	-4
CCOC(=O)c1ccc(N2C(=O)CC(N3CCN(C(=O)c4ccccc4)CC3)C2=O)cc1 (stereo not drawn)	5	1	2610	-16	4.1	1	9
CCC(C)(C)NC(=O)C(OC(=O)c1ccco1)c1ccccc1OC (stereo not drawn)	18	5	4173	-23	3.4	6	1
Cc1ccc(NS(=O)(=O)c2ccc3c(c2)oc(=O)n3C)cc1	12	6	4363	-25	2.4	4	8
CC1=Nc2ccc(C)cc2/C1=C/c1c(N)n2nc(CC(=O)N3CCOCC3)sc2nc1=O	19	14	6098	-15	0.8	5	-16
O=C(N/N=C\c1c(O)ccc2ccccc12)c1ccc(Cn2cccn2)o1	/	/	2080	7	/	/	14
Cc1ccc(C2=[N+]([O-])C(C)(C)N(O)C2(C)C)cc1	6	4	1927	-16	2.5	1	-1
CCCCc1ccc(NC(=O)CSc2nc(=O)n(CCN3CCOCC3)c3c2CCC3)cc1	-10	-4	/	-16	2.1	2	7
COC(=O)c1ccc(CSc2nnc(NC(=O)C3CCCO3)s2)cc1 (stereo not drawn)	6	3	2544	-2	8.6	-3	-1
COc1cccc(-n2c(O)c(C=NCc3ccc4c(c3)OCO4)c(=O)[nH]c2=O)c1	3	8	22432*	-8	0.6	4	1
CCOc1cc(C(=O)NC2CCCCCCC2)cc(OCC)c1OCC	3	11	6146	0	2.4	14	-5
C(=N\Nc1nc2ccccc2[nH]1)/c1ccc2c(c1)OCO2	/	/	4497	-38	/	/	2
O=C1CCC(=O)N1CCC(c1ccc(F)cc1)c1ccco1 (stereo not drawn)	10	5	7707	-11	0.1	7	2
C/C(=C\C(=O)c1ccccc1)Nc1ccc(N2CCOCC2)cc1	8	9	9633	-31	5.6	-1	1
CCCCCCc1nnc(NC(=O)c2ccco2)s1	5	7	3121	-24	2.9	15	5
Nc1c(N(CCO)C(=O)c2ccccc2OCc2ccccc2Cl)c(=O)[nH]c(=O)n1Cc1ccccc1	7	6	5260	-11	2.7	1	/
Cc1ccc(OC(C)C(=O)Nc2ccccc2C(=O)N2CCOCC2)cc1 (stereo not drawn)	15	7	6132	-3	1.4	8	-2
CC(=O)OC(C(=O)NC1CCCCC1)c1ccccc1 (stereo not drawn)	/	/	3604	-20	2.0	12	7
CCOC(=O)C1CCN(Cc2ccc(F)cc2)CC1	4	9	16511*	-13	1.6	5	/
CCOc1ccc(CCNc2nc3ccc(C)cc3n3cnnc23)cc1OCC	-6	3	3997	-4	0.1	-2	-2

# (next part)
structure	Mtb hypoxia rep	Mtb hypoxia rep growth	Autofluor counter	PrP UTR inh	Sa RN4220 lethal	ugtP null kill	BJeLR viability
O=C(Nc1ccccc1)c1ccccc1CCc1ccccc1	2	15	11493	9	-1.1	6	5
O=C(N[C@@H]1c2ccccc2CC[C@@H]1OCc1ccccc1)c1ccc(-c2ccccc2)cc1	-5	0	3739	-35	-3.8	6	/
O=C(CCN1C(=O)/C(=C/c2ccc(Cl)cc2)SC1=S)NC1C=CS(=O)(=O)C1 (stereo not drawn)	-2	-8	4677	3	3.0	-1	3
C/C(=N/OCO/N=C(\C)c1ccccc1)c1ccccc1	/	/	2059	-36	/	/	1
N/C(=N\OC(=O)Cc1ccc([N+](=O)[O-])cc1)c1cccc(Br)c1	/	/	4316	-21	/	/	0
CCOc1ccccc1NC(=O)[C@@H](NC(=O)c1cccc(S(=O)(=O)N2CCOCC2)c1)C(C)C	11	4	4243	-33	3.0	4	3
O=C(CSCc1ccc(Cl)cc1)NN=Cc1ccc(OCC(=O)Nc2ccccc2)cc1	5	10	/	/	-9.3	-14	/
COC(=O)C1=NNCC12CC(=O)N(c1ccc(Br)cc1)C2=O (stereo not drawn)	5	1	2432	-15	-1.0	5	7
CC(C)c1ccc(NC(=O)CSc2ncccc2C(=O)Oc2cccc([N+](=O)[O-])c2)cc1	1	-3	2156	-15	5.7	3	-17
Cc1onc(-c2c(F)cccc2Cl)c1C(=O)Nc1cccc(Cn2cccn2)c1	2	-1	7988	-7	1.7	0	-4
CCOC(=O)C(NC(C)=O)C(=O)Nc1ccc(C(C)(C)C)cc1 (stereo not drawn)	2	7	2578	-17	-1.0	14	-2
CCN(CC(=O)Nc1ccc(NC(C)=O)cc1)C(=O)C12CC3CC(CC(Cl)(C3)C1)C2	-11	-7	6308	-5	4.4	3	0
COc1cccc(C=NNC(=O)c2cc3cc([N+](=O)[O-])ccc3s2)c1O	7	8	/	/	-0.5	-3	/
Cc1onc(-c2c(F)cccc2Cl)c1C(O)c1ccc(F)cc1 (stereo not drawn)	20	8	4019	/	7.7	-1	5
O=C(c1cnn(-c2ccccc2)c1)c1cc(Br)ccc1O	3	3	3843	-10	5.1	4	/
COc1ccc(NC(=O)c2ccc(COc3ccccc3)o2)c(OC)c1	3	0	3704	-12	1.1	7	-2
CCOc1ccc(C(=O)NC2=NCCS2)cc1	0	6	/	/	5.4	1	-6
O=[N+]([O-])c1cc(CN2CCN(c3ccccc3)CC2)c(O)c2ncccc12	12	15	4225	24	60	31	10
CCc1ccc(CN(C)C(=O)c2cc(COc3cc(C)c(Cl)c(C)c3)on2)nc1	6	2	5238	-11	-0.2	-7	2
Clc1nc(Nc2ccc(N3CCOCC3)cc2)c2ccccc2n1	/	/	4275	14	-2.5	9	3

# Part of the list above in order of molecular weight, falling.
structure	Mtb hypoxia rep	Mtb hypoxia rep growth	Autofluor counter	PrP UTR inh	Sa RN4220 lethal	ugtP null kill	BJeLR viability
CCc1ccc(CN(C)C(=O)c2cc(COc3cc(C)c(Cl)c(C)c3)on2)nc1	6	2	5238	-11	-0.2	-7	2
O=C(c1cnn(-c2ccccc2)c1)c1cc(Br)ccc1O	3	3	3843	-10	5.1	4	/
Clc1nc(Nc2ccc(N3CCOCC3)cc2)c2ccccc2n1	/	/	4275	14	-2.5	9	3

# (listing goes on)
structure	Mtb hypoxia rep	Mtb hypoxia rep growth	Autofluor counter	PrP UTR inh	Sa RN4220 lethal	ugtP null kill	BJeLR viability
CCOc1cc(N2CCOCC2)c(OCC)cc1NC(=O)COC(=O)CCOc1ccc(C)cc1	/	/	5089	-22	/	/	2
Cc1occc1C(=O)Nc1cccc(Cl)c1Cl	13	0	6497	-47	21	0	-7
COc1ccc(Cn2c(=O)[nH]c3cc(C(=O)NCCCOC(C)C)ccc3c2=O)cc1	-4	-7	?	-11	-1.2	-5	2
Cc1ccc(N=C(NOC(=O)c2ccccc2)c2nonc2N)c(C)c1	5	10	2396	3	13	-4	-9
CC(NC(=O)c1ccc(Br)o1)c1ccccc1 (stereo not drawn)	/	/	3244	-19	4.5	4	-6
COc1ccc(S(=O)(=O)NC2CCCC2)cc1NC(C)=O	-6	1	4009	-18	-6.0	-10	-8
CCOc1ccc(NC(=O)c2cc(S(=O)(=O)N3CCOCC3)cn2C)cc1	-11	-7	4886	51*	-1.3	-4	-5
CSc1nc2ccc(NC(=O)c3c(F)cccc3F)cc2s1	6	2	4476	-36	-1.3	-4	3
NC(=S)NN=Cc1ccc(-c2cc(Cl)ccc2Cl)o1	/	/	/	/	24	-13	/
O=C(c1cccc2ccccc12)C1CCCN(C(=O)C2CCOCC2)C1 (stereo not drawn)	-2	-3	4682	-27	6.3	-1	4
CCOC(=O)c1c(NC(=O)CSc2nnnn2-c2ccc3c(c2)OCCO3)sc(C)c1C	2	4	12665	-1	2.9	-12	-6
c1ccc2c(c1)nc(N1CCOCC1)c1nncn12	2	3	3218	-3	-5.5	6	-2
CCN1C(=O)N[C@@H](c2ccccc2)[C@H](C(=O)OC)[C@H]1C	/	/	4119	-7	/	/	-6
O=C(NN1CCCCC1)c1ccccc1	6	0	7378	-15	4.7	-6	-16
O=C(NNC(=O)c1cc(-c2ccncc2)nc2ccccc12)Nc1ccc(F)cc1	0	6	5119	-9	2.2	-1	-1
C/C(=N\NC(=O)CCCC(=O)O)c1c(-c2ccccc2)c2cc(Cl)ccc2[nH]c1=O	/	/	4109	-29	/	/	5
